PV pol inh = poliovirus RNA polymerase inhibition; % elongation, % (compound at 16.7 µg/mL); actives 0.66% (n = 150,000); P03300; poliovirus polymerase elongation, fluorescence polarization; active compounds read low; in the data active = % elongation below about 90%; also: some results filed as inactive read as strong as hits
Target sequence (P03300 1749-2209 limits assumed): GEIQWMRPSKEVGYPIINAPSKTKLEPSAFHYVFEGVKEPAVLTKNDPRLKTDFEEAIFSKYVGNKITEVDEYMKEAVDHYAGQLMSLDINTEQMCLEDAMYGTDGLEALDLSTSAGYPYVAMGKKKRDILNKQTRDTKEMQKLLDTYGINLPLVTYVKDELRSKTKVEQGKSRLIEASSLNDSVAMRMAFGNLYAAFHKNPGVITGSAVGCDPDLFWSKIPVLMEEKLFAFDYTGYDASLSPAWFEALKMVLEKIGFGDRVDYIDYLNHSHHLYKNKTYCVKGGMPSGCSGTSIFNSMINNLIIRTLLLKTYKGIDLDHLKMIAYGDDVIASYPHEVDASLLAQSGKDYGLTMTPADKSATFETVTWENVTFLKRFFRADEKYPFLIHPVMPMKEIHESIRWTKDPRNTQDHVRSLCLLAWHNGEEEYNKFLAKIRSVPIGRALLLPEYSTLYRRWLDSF
PV pol inh intensity = second read-out of PV pol inh, no call of its own (marks repeat the call); % elongation; measured here: total intensity read-out; formula for this scale not given here;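 total fluorescence in place of polarization; lower means less elongation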
* hit, by the source's call.

SMILES | PV pol inh | PV pol inh intensity
COC(=O)C(Cc1c[nH]c2ccccc12)NC(=O)COc1cccc(C)c1 (stereo unspecified) | 104 | 106
COc1ccc(CCNCc2ccc3c(c2)n(C)c(=O)n3C)cc1 | 103 | 105
COc1cccc(-c2cc(C(=O)Nc3cccnc3Cl)no2)c1 | 104 | 105
COc1ccccc1NC(=O)C(Cc1ccccc1)NS(=O)(=O)c1ccc2c(c1)CCN2C(C)=O (stereo unspecified) | 103 | 107
CC(=O)Nc1ccc(Nc2ncnc3c2cnn3C)cc1 | 111 | 105
FC(F)(F)c1cc(-c2ccccc2)nc2cc(-c3ccc(Br)cc3)nn12 | 101 | 118
CC(=O)c1cccc(NC(=O)c2cccn2-c2nnc(N3CCCCC3)s2)c1 | 112 | 116
Cc1ccccc1NC(=O)CSc1nnc(C)c(=O)[nH]1 | 111 | 105
CCc1ccc(NC(=O)c2ccc(CNS(=O)(=O)c3ccc4c(c3)C(C)(C)C(=O)N4C)cc2)cc1 | 115 | 121
CC(C)c1ccc(CNc2nc(-c3ccco3)nn2S(=O)(=O)c2ccc3ccccc3c2)cc1 | 101 | 91
N#C/C(=C\c1ccc(-c2ccc(Br)cc2)o1)C(=O)Nc1ccccc1O | 103 | 106
CCOC(=O)Cn1c(=O)n(-c2ccccc2OC)c2nc(-c3cccc(F)c3)nc(C(N)=O)c21 | 108 | 112
CCn1ccc2cc(S(=O)(=O)N3CCC(C(=O)NCCc4ccccc4Cl)CC3)ccc21 | 105 | 107
COC(=O)c1c(NC(=O)c2c(OC)cccc2OC)sc2c1CCCC2 | 106 | 107
CCC(=O)N1CCc2cc(S(=O)(=O)CCC(=O)NCc3ccc(C)cc3)ccc21 | 98 | 125
COc1ccc(C)cc1NC(=O)CN1C(=O)COc2ccc(S(=O)(=O)N3CCOCC3)cc21 | 117 | 125
Cc1ccc2nc(-c3ccccc3F)c(Nc3ccc(Cl)cc3)n2c1 | 104 | 106
CCOc1ccc(S(=O)(=O)N(C(C)=O)c2ccc3oc(C)c(C(=O)OC)c3c2)cc1 | 101 | 101
Cc1sc2ncn(CC(=O)N3CCN(c4ccccc4F)CC3)c(=O)c2c1S(=O)(=O)N1CCC(C)CC1 | 108 | 110
CCOC(=O)c1c(NC(=O)/C=C/c2ccc(OC)cc2)sc2c1CCC(C)C2 (stereo unspecified) | 102 | 105
CN(C)c1ccc(CNC(=O)Cc2ccc(NC(=O)N3CCCCc4ccccc43)cc2)cc1 | 115 | 112
O=C(c1ccc(F)cc1F)N1CCC(c2nc(-c3ccc(S(=O)(=O)N4CCCC4)cc3)no2)CC1 | 113 | 110
CCN(CC)c1ccc(NC(=O)c2cc(CN3CCCC3)on2)c(C)c1 | 110 | 112
CC1=C(C(=O)Nc2cccnc2)C(c2ccc(C)cc2)n2nc(SCc3ccccc3F)nc2N1 (stereo unspecified) | 106 | 110
Cc1cc2nn(-c3ccc(F)cc3)nc2cc1NC(=O)c1cccc2c(Cl)cccc12 | 102 | 105
CC(=O)c1ccc(N2CCN(C(=O)c3cc4c(s3)-c3ccccc3OC4)CC2)cc1 | 106 | 110
Cc1cccc(OCC(=O)Nc2ccc3c(c2)N(C)C(=O)c2ccccc2S3)c1 | 102 | 104
O=C(Nc1ccc(F)cc1)c1ccc(CN2CC(=O)N3CCCCC3C2=O)cc1 (stereo unspecified) | 108 | 107
O=C(Cc1ccccc1F)N1CCC(c2nc3c(nnn3Cc3cccc(Cl)c3)c(=O)[nH]2)CC1 | 100 | 93
Cc1cc(C)cc(NC(=O)C(=O)NC(C)c2ccccc2)c1 (stereo unspecified) | 105 | 110
Cc1ccc(C(CC(=O)Nc2ccc(F)c(Cl)c2)N2Cc3ccccc3C2=O)cc1 (stereo unspecified) | 105 | 103
COc1ccc(CNC(=O)CCS(=O)(=O)c2cc(Br)cc3c2N(C(=O)C2CC2)CC3)cc1 | 105 | 112
COc1cccc(CNC(=O)c2cc(=O)[nH]c3ccc(S(=O)(=O)N4CCCCC4)cc23)c1 | 105 | 109
CC(=O)Nc1ccc(NC(=O)C(c2ccccc2)N2Cc3ccccc3C2=O)cc1 (stereo unspecified) | 102 | 97
COc1ccc(NC(=O)Cn2c(=O)n(C(C)C)c(=O)c3oc4ccccc4c32)cc1Cl | 106 | 104
CCCCNC(=O)c1cn(C)c2ccc(S(=O)(=O)N3CCCC3)cc2c1=O | 102 | 100
CCOC(=O)c1ccc(NC(=O)c2noc3c2CCCC3)cc1 | 111 | 113
COc1cc(C(=O)N(Cc2cccnc2)c2nc3cc(C)c(C)cc3s2)cc(OC)c1OC | 109 | 109
CN(Cc1ccccc1)C(=O)C1CCN(S(=O)(=O)Cc2ccccc2)CC1 | 104 | 112
CCCn1c(CCC(=O)Nc2ccccc2OC)nc2cccnc21 | 108 | 98
CCOC(=O)c1ccccc1NC(=O)CSc1ccc(-c2cccs2)nn1 | 109 | 111
CCn1c(=O)c2cc(C(=O)NCCCN3CCN(c4ccc(F)cc4)CC3)sc2c2ccccc21 | 105 | 108
CCCCN(C)C(=O)CN1C(=O)CCn2nc(-c3cn(C)c4ccccc34)cc21 | 98 | 98
COc1ccc(Cl)cc1S(=O)(=O)Nc1ccc2[nH]c(=O)[nH]c2c1 | 101 | 104
Cc1cccc(C(=O)NCC(=O)OCc2cc(=O)n3nc(C)sc3n2)c1 | 105 | 104
Cc1ccc(CN2CCC(CNC(=O)Nc3cccc(Cl)c3C)C2)cc1 (stereo unspecified) | 97 | 98
CCOc1ccccc1CNC(=O)c1oc2c(c1C)-c1nn(Cc3cccc(Cl)c3)cc1CC2 | 105 | 111
Cc1ccc2ncc(C(=O)Nc3cccc(C(F)(F)F)c3)c(=O)n2c1 | 108 | 101
Cc1nn(C)c2c1c(C(F)(F)F)cc(=O)n2CC(=O)NCc1ccc(OC(C)C)cc1 | 103 | 98
Cc1cccc(CCNC(=O)c2cc3ccccn3n2)c1 | 106 | 106

Other entries follow.
SMILES | PV pol inh | PV pol inh intensity
O=C(Cc1ccccc1)NC1CC(=O)N(c2ccc3c(c2)OCCO3)C1 (stereo unspecified) | 111 | 107
CCN(c1ccccc1)S(=O)(=O)c1ccc(-c2cc(C)no2)s1 | 116 | 101
COc1ccc(NC(=O)c2oc3ccccc3c2NC(=O)c2cc(C)cc(C)c2)c(OC)c1 | 108 | 108
CCOC(=O)Cn1c(=O)oc2cc(S(=O)(=O)N3CCCC(C)C3)ccc21 (stereo unspecified) | 106 | 105
COc1ccc(C)cc1-n1nnc(C(=O)Nc2cccc(SC)c2)c1C | 113 | 111
COc1cccc2c1cc1c(=O)n(CC(=O)NCc3ccco3)nc(C)n12 | 101 | 104
COc1ccc(-c2c(C#N)c(SCC(=O)Nc3cccc(Cl)c3)nc(C)c2C(=O)Nc2ccccc2)cc1OC | 105 | 104
COc1ccccc1CNS(=O)(=O)c1ccc2c(c1)CC(C)N2C(C)=O (stereo unspecified) | 102 | 104
CCN(CCCNC(=O)CN1N=C(c2ccccc2)CCC1=O)c1ccccc1 | 110 | 114
O=C(Cn1ncc2c3ccccc3n(Cc3cccc(Cl)c3)c2c1=O)NCCCN1CCCCC1 | 134 | 135

Looked up above:
PV pol inh result of CCN(CCCNC(=O)CN1N=C(c2ccccc2)CCC1=O)c1ccccc1 : 110
PV pol inh result of COc1cccc2c1cc1c(=O)n(CC(=O)NCc3ccco3)nc(C)n12 : 101

Other entries.
SMILES | PV pol inh | PV pol inh intensity
CC(Oc1ccccc1F)C(=O)Nc1ccc(-c2nc3ccccc3s2)cc1 (stereo unspecified) | 101 | 94
CCC(=O)N1CCc2cc(Br)cc(S(=O)(=O)N3CCC(C(=O)Nc4cccc(C)c4)CC3)c21 | 100 | 108
CC(C)c1ccc(NS(=O)(=O)c2ccc3[nH]cc(C(=O)N4CCCC4)c(=O)c3c2)cc1 | 105 | 108
COc1ccccc1CNC(=O)CCCn1c(=O)c2ccccc2n(Cc2ccccc2F)c1=O | 99 | 95
CCOc1ccc(C2=NC(c3ccncc3)=Nc3ccc(C)cc3N2)cc1OCC | 107 | 93
CCOc1ccc(-n2c(SCc3ccc(C(=O)OC)o3)nc3c([nH]c4ccccc43)c2=O)cc1 | 105 | 114
CCn1nnc2cc(C(=O)Nc3ccc(C)c(Cl)c3)ccc21 | 113 | 111
O=C(NC1CCCCC1)c1ccc2c(c1)N(Cc1ccc(F)cc1)C(=O)c1ccccc1S2(=O)=O | 100 | 97
COc1ccc(C2CC(=O)Oc3c2c(=O)oc2ccccc32)c(OC)c1OC (stereo unspecified) | 99 | 102
Cc1c(Cl)cccc1N1CCn2c1nc1c2c(=O)n(CC(=O)O)c(=O)n1C | 107 | 111
CCOc1cccc(C(=O)N(Cc2ccc(F)cc2)Cc2ccco2)c1 | 101 | 107
COC(=O)c1ccc2c(=O)n(CCCCCC(=O)NCCc3ccccc3)c(=O)[nH]c2c1 | 105 | 96
O=C(NCCCc1nc2ccccc2n1Cc1cccc(Cl)c1)c1ccco1 | 105 | 108
COc1cccc(-c2nc(CS(=O)(=O)CC(=O)NCCc3ccc(OC)c(OC)c3)c(C)o2)c1 | 108 | 110
CCc1ccc(NC(=O)c2cc(C(C)=O)n3ccccc23)cc1 | 106 | 104
Cc1ccc(Cl)cc1Nc1nn2c(=O)c3ccc(C(=O)NCc4ccc(F)cc4)cc3nc2s1 | 108 | 102
CCOC(=O)C1=C(CN2CCN(c3cccc(Cl)c3)CC2)NC(=O)NC1c1ccc(Cl)cc1 (stereo unspecified) | 107 | 103
Cc1ccc(Cn2ccnc2SCC(=O)Nc2nc3ccccc3s2)cc1 | 106 | 97
COc1ccccc1OCCn1c(NC(=O)c2ccccc2Cl)nc2ccccc21 | 101 | 101
CCC(C)NC(=O)Cn1c(=O)cc(-c2ccccc2)c2c(C)nn(C)c21 (stereo unspecified) | 112 | 108
COc1ccc(CNC(=O)CCCn2c(=O)c3cccn3c3cccnc32)cc1 | 109 | 100
O=C(Nc1nnc(S(=O)(=O)N2CCCCC2)s1)c1ccccc1Br | 102 | 106
Cc1cc(C)cc(NC(=O)CCCN2C(=O)COc3ccc(C)cc32)c1 | 101 | 106
CC1CCN(c2ncnc3c2cnn3-c2ccc(F)cc2)CC1 | 103 | 108
Cc1cccc(NC(=O)C(Cc2ccccc2)N2Cc3ccccc3C2=O)c1C (stereo unspecified) | 105 | 108
CCOc1ccccc1NC(=O)Cn1c(=O)ccc2cc(S(=O)(=O)N3CCC(C)CC3)ccc21 | 103 | 106
CC(C)CC(=O)Nc1nnc(S(=O)(=O)N(C)Cc2ccc(Cl)cc2)s1 | 109 | 109
CCc1ccc(NC(=O)c2ccc3c(O)c(S(=O)(=O)c4ccc(Cl)cc4)c(=O)[nH]c3c2)cc1 | 104 | 104
O=C(NCc1ccc2c(c1)OCO2)c1ccc2c(c1)N(Cc1cccc(Cl)c1)C(=O)c1ccccc1S2 | 110 | 108
COc1ccccc1CN(Cc1c(Cl)cccc1Cl)S(=O)(=O)c1ccc(Br)cc1 | 110 | 111
Cc1ccc(C)c(CSc2nc(-c3ccccc3F)nc3c2Cc2c(CO)cnc(C)c2O3)c1 | 109 | 96
O=C(OCc1ccccc1Cl)c1ccc(-c2nnn(Cc3ccccc3Cl)n2)cc1 | 103 | 110
Cc1ccc(S(=O)(=O)c2cn(C)c3cc(N4CCCCC4)c(F)cc3c2=O)cc1 | 111 | 113
Cc1ccc(S(=O)(=O)CC(=O)Nc2sc3c(c2C#N)CCCC3)cc1 | 102 | 97
Cc1c(-c2nsc(NC(=O)c3ccccc3)n2)nnn1-c1ccc(C(F)(F)F)c(Cl)c1 | 101 | 117
CCCOc1cccc(C2c3c(oc4ccc(F)cc4c3=O)C(=O)N2CCc2ccc(OC)cc2)c1 (stereo unspecified) | 107 | 112
Cc1ccn2c(Nc3ccc(F)cc3)c(-c3ccc(C)o3)nc2c1 | 105 | 109
CCOc1ccc(NC(=O)CC2C(=O)N(c3ccccc3)C(=O)N2CCc2cccs2)cc1 (stereo unspecified) | 104 | 104
CCOc1ccc(NC(=O)CSc2nnc(-c3ccc(OCC)cc3)o2)cc1 | 108 | 109

Molecules listed so far containing a furan ring, fused or not (11):
SMILES | PV pol inh | PV pol inh intensity
CC(C)c1ccc(CNc2nc(-c3ccco3)nn2S(=O)(=O)c2ccc3ccccc3c2)cc1 | 101 | 91
N#C/C(=C\c1ccc(-c2ccc(Br)cc2)o1)C(=O)Nc1ccccc1O | 103 | 106
CCOc1ccc(S(=O)(=O)N(C(C)=O)c2ccc3oc(C)c(C(=O)OC)c3c2)cc1 | 101 | 101
COc1ccc(NC(=O)Cn2c(=O)n(C(C)C)c(=O)c3oc4ccccc4c32)cc1Cl | 106 | 104
CCOc1ccccc1CNC(=O)c1oc2c(c1C)-c1nn(Cc3cccc(Cl)c3)cc1CC2 | 105 | 111
COc1ccc(NC(=O)c2oc3ccccc3c2NC(=O)c2cc(C)cc(C)c2)c(OC)c1 | 108 | 108
COc1cccc2c1cc1c(=O)n(CC(=O)NCc3ccco3)nc(C)n12 | 101 | 104
CCOc1ccc(-n2c(SCc3ccc(C(=O)OC)o3)nc3c([nH]c4ccccc43)c2=O)cc1 | 105 | 114
CCOc1cccc(C(=O)N(Cc2ccc(F)cc2)Cc2ccco2)c1 | 101 | 107
O=C(NCCCc1nc2ccccc2n1Cc1cccc(Cl)c1)c1ccco1 | 105 | 108
Cc1ccn2c(Nc3ccc(F)cc3)c(-c3ccc(C)o3)nc2c1 | 105 | 109

Reformatted with two lines to a compound: part of the list above
The line under a structure holds: PV pol inh	PV pol inh intensity
CCc1ccc(NC(=O)c2ccc3c(O)c(S(=O)(=O)c4ccc(Cl)cc4)c(=O)[nH]c3c2)cc1
  104	104
O=C(NCc1ccc2c(c1)OCO2)c1ccc2c(c1)N(Cc1cccc(Cl)c1)C(=O)c1ccccc1S2
  110	108

From PubChem

This is a subset; the hit share may differ from the screen's.
